VDR inh – blocks the human vitamin D receptor; P11473; VDR-SRC2-3 peptide fluorescence polarization, 2 h; Potency, µM, for the others: max response, negative = inhibition, hits mostly inhibitors; actives 0.93% (n = 400,000); AID 504847; active means well fitted inhibition curve with a large enough effect; inconclusive means small, poorly fitted or top-dose-only effect, or another doubt; inactive means no such curve, though single readings can be large or run the other way; further: series mostly up to about 120 µM
Target sequence (P11473 whole entry, looked up): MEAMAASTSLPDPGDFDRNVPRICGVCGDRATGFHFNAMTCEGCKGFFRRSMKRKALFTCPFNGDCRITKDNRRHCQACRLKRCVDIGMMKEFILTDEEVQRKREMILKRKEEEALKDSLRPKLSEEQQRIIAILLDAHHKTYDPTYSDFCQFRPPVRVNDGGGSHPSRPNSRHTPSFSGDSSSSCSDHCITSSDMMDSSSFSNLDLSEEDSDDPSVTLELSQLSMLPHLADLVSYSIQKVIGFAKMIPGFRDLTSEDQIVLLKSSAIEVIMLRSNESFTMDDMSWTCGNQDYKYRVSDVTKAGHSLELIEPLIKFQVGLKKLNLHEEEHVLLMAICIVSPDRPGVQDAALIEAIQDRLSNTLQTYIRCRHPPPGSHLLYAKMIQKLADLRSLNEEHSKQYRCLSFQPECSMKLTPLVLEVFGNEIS
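Reagent solutions, kept cold and dark, are dispensed first; compounds are then pinned in at 23 nl, plates briefly spun, and incubated 2 h at ambient temperature. Inhibition of VDR–SRC2-3 peptide binding is read by fluorescence polarization.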
* hit, by the source's call; ? = inconclusive; & = joins results of further samples. On the % scale 0 is the no-effect control and ±100 the full control effect; potency means the concentration at half of the fitted maximal effect. The list is partial, so the mix of outcomes need not match the whole.

SMILES	VDR inh
CCN1C(=O)[C@H]2[C@@H](c3ccc(-c4ccc(OC)cc4)cc3)N3CCCC[C@@]3(C(=O)OC)[C@H]2C1=O	1%
CCN(CC)CCn1c(=S)[nH]c2cc(C(=O)N3CC(C)CC(C)C3)ccc2c1=O (stereo not drawn)	-13%
O=C(NCc1ccccn1)C(=O)NCC1OCCCN1S(=O)(=O)c1cc(F)ccc1F (stereo not drawn)	-2%
O=C(Nc1cccc2ccccc12)N1CCN(Cc2ccc3c(c2)OCO3)CC1	6%
CCOc1ccccc1NC(=O)CSc1nnc(-c2ccco2)o1	-13%
Cc1ccc(S(=O)(=O)Nc2cccc3c2O[C@H](CN(C)C(=O)Nc2ccc(C(F)(F)F)cc2)[C@@H](C)CN([C@H](C)CO)C3=O)cc1	2%
O=C(O)CCCCCNC(=O)CCn1cnc2ccccc2c1=O	-10%
C=C1CC(COc2cc(=O)oc3ccccc23)(c2ccccc2)OC1=O (stereo not drawn)	?
O=C(CSc1cccc(C(F)(F)F)c1)Nc1ccc(Cl)cc1Cl	-1%
CCCOc1cccc(C(=O)Nc2ccccc2C(=O)N2CCN(C)CC2)c1	-8%
COC(=O)c1ccccc1OCC(=O)N1CCN(c2ccc(F)cc2)CC1	-10%
O=c1cc(-c2ccccc2O)nc(-c2ccccc2)[nH]1	-8%
O=C1CCc2cc(S(=O)(=O)N3CCCC3C(=O)N3CCN(c4ccccc4)CC3)ccc2N1 (stereo not drawn)	-4%
CC(=O)Nc1nnc(-c2ccc(Cl)s2)o1	2%
COCCNC(=O)CN1C(=O)COc2ccc(S(=O)(=O)N3CCOCC3)cc21	-5%
CC(=O)NCCNc1nc(-c2ccc(C(=O)N(C)C)cc2)nc2ccccc12	1%
COc1ccc(CCN2CNc3c(c(=O)n(C)c(=O)n3C)C2)cc1	-1%
CCN1C(=O)[C@H]2[C@H]3CN=C(SC)N3[C@@](CC)(C(=O)OC)[C@H]2C1=O	-25%
O=C(NCc1ccco1)c1cc([N+](=O)[O-])cc([N+](=O)[O-])c1	-11%
CC(c1nnc(SCC(=O)Nc2cccnc2Cl)n1Cc1ccccc1)N(C)C (stereo not drawn)	-5%
CN(Cc1ccc(Cl)cc1)C(=O)CNC(=O)C12CC3CC(CC(C3)C1)C2	-13%
c1cc(CNC2C3CC4CC(C3)CC2C4)ccn1 (stereo not drawn)	4%
CN(C)C(CNC(=O)c1ccc2ccccc2c1)c1ccco1 (stereo not drawn)	-13%
CC1CCC(N2CCN(c3ccc([N+](=O)[O-])cc3)CC2)CC1 (stereo not drawn)	-6%
Cc1c(S(=O)(=O)NCc2ccccc2)c(=O)n(C)c(=O)n1C	-7%
CCOc1cc(/C=N/NC(=O)COc2ccccc2C)ccc1OC(=O)c1cccs1	2%
CCOCCCNC(=O)c1cc(-c2cccnc2)nc2ccc(S(=O)(=O)N3CCC(C)CC3)cc12	-7%
CCN1C(=O)C2(C(C(=O)c3cc4ccccc4o3)=C(O)C(=O)N2CCCN(C)C)c2ccccc21 (stereo not drawn)	-11%
Cc1ccc(C)n1C(CC(=O)O)c1ccc(C#N)cc1 (stereo not drawn)	3%
CCC(CC)NC(=O)c1cc(OC)c(OC)c(OC)c1	-4%
Cn1c(CNc2ccc(Br)cc2)nc2ccccc21	-3%
Cc1cc(Br)ccc1NC(=O)c1ccco1	-8%
COc1cc(C(=O)NCC(=O)N/N=C/c2ccc(-c3cccc([N+](=O)[O-])c3)o2)cc(OC)c1OC	3%
Cc1onc(-c2ccccc2)c1C(=O)NC(=S)Nc1sc2c(c1C#N)CCCC2	?
C[C@H]([C@@H](N)C(=O)N[C@@H](C(=O)O)[C@@H]1O[C@H](n2ccc(=O)[nH]c2=O)[C@@H](O)[C@H]1O)[C@@H](O)c1ccc(O)cn1	2%
COc1cc(/C=N/NC(=O)CNC(=O)c2ccncc2)ccc1OC(C)=O	-6%
Cc1cc(NC(=O)c2ccccc2)n(C)n1	-10%
COc1ccc(-c2ccc(NS(=O)(=O)c3ccc([N+](=O)[O-])cc3)cc2)nn1	16%
CC(=O)Nc1ccc(NC(=O)c2ccc3c(c2)CCN3S(=O)(=O)c2ccc(Cl)cc2)cc1	10%
COc1cccc2c(=O)n(CC(=O)N3CCCc4ccccc43)ccc12	-15%
Cn1c(=O)c2c(ncn2CC(=O)NC2CCCCC2)n(C)c1=O	7%
CCOc1ccc(NC(=O)CSc2nc(C)c3c(c2C#N)CCCC3)cc1	-9%
NC(=O)C(c1ccc(Cl)cc1)c1ccc(Sc2ccc(Cl)cc2)nn1 (stereo not drawn)	17%
Cc1c(N2C(=O)CS/C2=N\N=C\c2ccc(Br)cc2)c(=O)n(-c2ccccc2)n1C	8%
CCn1ccnc1CN(C)C(=O)c1ccc2nc(Cc3ccc(OC)cc3)oc2c1	-10%
CC(OC(=O)CCCN=C1NS(=O)(=O)c2ccccc21)C(=O)Nc1ccc(F)c(F)c1F (stereo not drawn)	-7%
Cn1c(=O)n(C)c2cc([N+](=O)[O-])c(N3CCN(S(=O)(=O)c4ccc(C(C)(C)C)cc4)CC3)cc21	-15%
Cc1cccc(C)c1-n1c(C)nn(CC#N)c1=O	-12%
CC(C)(C)c1ccc(C2=NC(C)(C)N(CC(=O)Nc3ccc(F)c(F)c3)C2=O)cc1	-7%
Cc1cccc(Oc2ccc3c(c2)cc(C(=O)O)n3C)c1	-20%
The results go on:
SMILES	VDR inh
CCCN(CCC)CC(O)Cn1cc(/C=C/C(=O)c2ccccc2)c2ccccc21 (stereo not drawn)	11%
Cc1onc(-c2ccccc2)c1C(=O)NC(=S)Nc1sc2c(c1C#N)CCC(C)C2 (stereo not drawn)	?
O=c1[nH]c2ccccc2n1CCCN1CCCCC1	2%
COc1cc(/C=N/NC(=O)Cn2nc([N+](=O)[O-])cc2C)cc(Br)c1OCc1ccccc1	11%
Cc1ccc(-n2nc3ccc(NC(=S)NC(=O)/C=C/c4ccco4)cc3n2)cc1	-5%
COc1ccc(CC(=O)NCc2nnc(SCc3ccc(C)cc3)n2C)cc1	-9%
CC(C)OCCCNc1ncc2c(n1)CC(c1ccccc1)CC2=O (stereo not drawn)	-9%
Cc1ccc(C(=O)OCC(=O)NC2CCCCCC2)c(C)c1	-6%
COc1cc([N+](=O)[O-])ccc1NC(=O)Nc1cccnc1	-1%
CC(Cl)C(=O)Nc1cc(C(F)(F)F)ccc1N1CCOCC1 (stereo not drawn)	1%
COc1ccc(CC(C(=O)Nc2ccc(OC)cc2)c2nn[nH]n2)cc1 (stereo not drawn)	5%
CCN(CC)C(=O)c1cc(Cl)ccn1	-21%
Cc1c(C(=O)Nc2ccc(Cl)cc2)c2ccccn2c1C(=O)c1ccc(F)cc1	2%
NC1=NC(=O)S/C1=C\c1ccc(O)cc1	4%
Cc1oc(-c2ccc3c(c2)OCCO3)cc1C(=O)NC(Cc1ccccc1)C(=O)O (stereo not drawn)	?
CCn1c(CC(=O)Nc2ccc(C)cc2)nnc1SCC(=O)NCCc1ccccc1	3%
Cc1ccc(NC(=O)ON=C2CCCC2)cc1	0%
CC(C)(C)c1ccc(CN(Cc2ccco2)Cc2nnnn2C2CCCC2)cc1	-10%
O=C(Nc1ccnn1C1CCN(C(=O)c2ccc(F)c(Cl)c2)CC1)C1CC1	10%
Cc1noc(C)c1S(=O)(=O)N1CCN(c2ccccc2Cl)CC1	-8%
O=C(O)c1cnc2ccccc2n1	?
COc1cccc(NS(=O)(=O)NC(=O)c2cn(C)c3ccccc23)c1	-3%
c1ccc(CSc2ncnc3c2oc2ccccc23)cc1	-2%
CCOC(=O)c1ccccc1NC(=O)CSC(C)C(=O)Nc1cc(C)on1 (stereo not drawn)	-8%
CCN(CC)C(=O)C1CCN(c2cc(C)nc3c(-c4ccc(OC)c(OC)c4)c(C)nn23)CC1	-11%
Cc1ccc(NC(=S)Nc2cccc3ccccc23)cc1F	-10%
Cc1c(C(=O)OCC(=O)Nc2ccccc2OC(F)F)cccc1[N+](=O)[O-]	5%
COC(c1ccc(Cl)cc1)(c1ccc(Cl)cc1)C(Oc1nccc(C)n1)C(=O)O (stereo not drawn)	-5%
COc1ccc(N2CCN(C(CNS(=O)(=O)c3ccc4c(c3)OCCO4)c3ccco3)CC2)cc1 (stereo not drawn)	-7%
Cc1nc2nc(SCC(=O)NCc3ccccc3)nn2c(C)c1Cc1ccccc1	1%
CCOP(=O)(OCC)/C(=N/OC(=O)c1cccc([N+](=O)[O-])c1)C(N)=O	2%
CCOc1ccccc1NC(=O)CN(C)S(=O)(=O)c1ccc2nc(C)sc2c1	-6%
CN(C)S(=O)(=O)c1ccc(C(=O)NCC(C)(C)CN=C2NS(=O)(=O)c3ccccc32)cc1	0%
Cc1sc(NC(=O)CSc2ncn(-c3ccccc3)n2)nc1-c1ccccc1	9%
COc1ccc(C(=O)N2c3ccccc3CC2C)cc1OC (stereo not drawn)	-2%
Cc1cc(C(=O)Nc2ccccc2)c(C)o1	1%
C#CC[N+](C)(C)CCCCCCCC	14%
O=C(Nc1ccc2c(c1)OCCO2)c1ccc(Cl)c([N+](=O)[O-])c1	-12%
COc1ccc(/C=C/C(=O)N(C(C)C)C(C)C)cc1Br	0%
COc1ccccc1C1(O)CCN(CC(=O)Nc2nc(-c3ccccc3)cs2)CC1	0%
Nc1cccc(-c2cnc3ccccc3n2)c1	?
CC(C)c1c(O)c(-c2cc3c(c(C(C)C)c2O)CCC2C(C)(C)CCC[C@@]32C)cc2c1CCC1C(C)(C)CCC[C@@]21C (stereo partly drawn)	-2%
COc1ccc2cc3c(N)nn(C(=O)c4ccccc4[N+](=O)[O-])c3nc2c1	4%
CCCCCn1nnc2c(=O)oc3ccccc3c21	1%
O=C(Cn1nc(C(=O)O)c2ccccc2c1=O)Nc1cc(C(F)(F)F)ccc1-n1cncn1	18%
Cc1nc2scc(C)n2c(=O)c1S(=O)(=O)NCc1ccc(F)cc1	-24%
COC(=O)c1ccccc1S(=O)(=O)NCc1nc2nc(C)cc(C)n2n1	4%
Nc1ncc([N+](=O)[O-])c(N2CCCCCC2)n1	-11%
O=C(Nc1ccccc1N1CCCC1)c1cccc(F)c1	-6%
CCN1C(=O)C2(c3ccccc31)c1c(oc3ccc(F)cc3c1=O)C(=O)N2CCCOC (stereo not drawn)	1%
Following part
SMILES	VDR inh
CCOc1ccccc1C1C(C#N)=C(N)SC(N)=C1C#N	?
O=C(CNc1cccc(S(=O)(=O)N2CCOCC2)c1)Nc1ccccc1F	-5%
CCOC(=O)C1(Cc2cccc(OC)c2)CCN(Cc2cc(OC)ccc2OC)CC1	7%
COC(=O)CCCC1=CC2=C(c3ccccc3)C(=O)C(C)(OC(=O)C3CCCC3)C(=O)C2=CN1c1ccccc1 (stereo not drawn)	0%
Cc1onc(-c2c(Cl)cccc2Cl)c1C(=O)NC1C(=O)N2C1SC(C)(C)C2C(=O)O (stereo not drawn)	6%&-17%
[O-][n+]1ccccc1SCc1ccccc1	-14%
Cc1ccc(S(=O)(=O)COCCN2CCN(S(=O)(=O)c3ccc(C)cc3)CCC2=O)cc1	-4%
Cc1nn(C)cc1/C=N/NC(=O)C(C)(C)Oc1ccc(Cl)cc1	-17%
CC1CCN(C(=O)c2ncn(Cc3ccccc3)c2C(=O)N2CCC(C)CC2)CC1	-11%
O=C(NCCO)c1scc2c1OCCO2	15%
CN(C)c1ccc(N2C(=NC(=O)COc3ccccc3)SC3CS(=O)(=O)CC32)cc1 (stereo not drawn)	20%
CC1(C)CC(=O)C2=C(C1)NCN(CCCN1CCOCC1)C2	13%
O=C(NCc1ccccc1)c1onc(CSc2ccccn2)c1C(=O)NCc1ccccc1	-6%
Cc1ccccc1CN1C(=O)c2ccccc2Sc2ccc(C(=O)NC3CCCC3)cc21	1%
O=C(COC(=O)c1cnc(Cl)c(Cl)c1)Nc1ccc(S(=O)(=O)N2CCCC2)cc1	-3%
COc1ccc(C2=NN(CC(=O)NCc3ccccc3Cl)C(=O)CC2)cc1	18%
O=C(O)Cn1nnc(-c2ccc(OCc3ccccc3)cc2)n1	6%
COc1ccc(C)c(NC(=O)C2CC(=O)NC3=C2C(=O)CCC3)c1 (stereo not drawn)	-1%
Cc1cc(NC(=O)CCC(=O)N(c2ccccc2)C(C(=O)NC2CCCCC2)c2cccs2)no1 (stereo not drawn)	-3%
COc1ccc(C(=O)c2sc(Nc3ccccc3)c(C(=O)Nc3ccc(OC)c(OC)c3)c2N)cc1	?
O=C(NNC(=O)c1cc(S(=O)(=O)N2CCCCC2)ccc1Cl)c1ccccc1O	3%

Of the compounds above, these contain fluorine:
SMILES	VDR inh
O=C(NCc1ccccn1)C(=O)NCC1OCCCN1S(=O)(=O)c1cc(F)ccc1F (stereo not drawn)	-2%
Cc1ccc(S(=O)(=O)Nc2cccc3c2O[C@H](CN(C)C(=O)Nc2ccc(C(F)(F)F)cc2)[C@@H](C)CN([C@H](C)CO)C3=O)cc1	2%
O=C(CSc1cccc(C(F)(F)F)c1)Nc1ccc(Cl)cc1Cl	-1%
COC(=O)c1ccccc1OCC(=O)N1CCN(c2ccc(F)cc2)CC1	-10%
CC(OC(=O)CCCN=C1NS(=O)(=O)c2ccccc21)C(=O)Nc1ccc(F)c(F)c1F (stereo not drawn)	-7%
CC(C)(C)c1ccc(C2=NC(C)(C)N(CC(=O)Nc3ccc(F)c(F)c3)C2=O)cc1	-7%
CC(Cl)C(=O)Nc1cc(C(F)(F)F)ccc1N1CCOCC1 (stereo not drawn)	1%
Cc1c(C(=O)Nc2ccc(Cl)cc2)c2ccccn2c1C(=O)c1ccc(F)cc1	2%
O=C(Nc1ccnn1C1CCN(C(=O)c2ccc(F)c(Cl)c2)CC1)C1CC1	10%
Cc1ccc(NC(=S)Nc2cccc3ccccc23)cc1F	-10%
Cc1c(C(=O)OCC(=O)Nc2ccccc2OC(F)F)cccc1[N+](=O)[O-]	5%
O=C(Cn1nc(C(=O)O)c2ccccc2c1=O)Nc1cc(C(F)(F)F)ccc1-n1cncn1	18%
Cc1nc2scc(C)n2c(=O)c1S(=O)(=O)NCc1ccc(F)cc1	-24%
O=C(Nc1ccccc1N1CCCC1)c1cccc(F)c1	-6%
CCN1C(=O)C2(c3ccccc31)c1c(oc3ccc(F)cc3c1=O)C(=O)N2CCCOC (stereo not drawn)	1%
O=C(CNc1cccc(S(=O)(=O)N2CCOCC2)c1)Nc1ccccc1F	-5%

Source: PubChem
